# Screening data from PubChem.
# VACV mCherry inh: inhibitors of vaccinia virus infection (mCherry reporter signal) | Potency, µM (highest dose often 36.5 µM), for inactives: at the highest dose activity change, negative = inhibition, hits mostly inhibitors | hit rate 0.63% among 310,000 | Vaccinia virus mCherry reporter infection, fluorescence; about a quarter of the inactives have no number; active = well fitted inhibition curve with a large enough effect; inconclusive = small, poorly fitted or top-dose-only effect; inactive = no such curve, though single readings can be large or run the other way; tested in A549 cells; further: nearly all actives have a fitted effect of over 35% in size; inactives centre near -10
# Vaccinia Venus: vaccinia inhibition (Venus reporter); Vaccinia virus Venus reporter expression, fluorescence; Potency, µM (doses to about 36.5 µM), for the others: top-dose activity change, negative = inhibition, hits mostly inhibitors; hit rate 0.46% among 330,000; active means well fitted inhibition curve with a large enough effect; inconclusive means small, poorly fitted or top-dose-only effect; inactive means no such curve, though single readings can be large or run the other way; tested in A549 cells; further: nearly all actives have a fitted effect of over 30% in size; inactives centre near -10
# * = called active by the depositor; i = inactive; u = inconclusive; x = no result given; & = joins results of further samples; [ ] = dose if it differs, or a comment. On the % scale 0 is the no-effect control and ±100 the full control effect; potency means the concentration at half of the fitted maximal effect.
nr | molecule | VACV mCherry inh | Vaccinia Venus
1 | CC1CCCC(C)N1C(=O)COC(=O)CCc1nc2ccccc2c(=O)[nH]1 (centres undefined) | -19% | -11%
2 | COC(=O)c1ccc(N(CC(=O)NC2CCCCC2)C(=O)CNC(=O)c2ccco2)cc1 | -9% | 7%
3 | O=C(NCCCn1ccnc1)C(=O)NCC(c1cccnc1)N1CCN(c2ccc(F)cc2)CC1 (centres undefined) | i | 0%
4 | CC(C)Oc1cc(S(=O)(=O)N2CCCCC2)ccc1N | -5% | -16%
5 | O=c1ccn(-c2ccccc2)[nH]1 | 0% | -6%
6 | CCOC(=O)C(=NC1CCS(=O)(=O)C1)NNc1cc(Cl)ccc1Cl (centres undefined) | -17% | 2%
7 | CCOc1ccc2oc(=O)cc(CN3CCN(C(=O)c4ccco4)CC3)c2c1 | -2% | -15%
8 | COc1ccc(/C=C/C(=O)Nc2ccc(C)c(S(=O)(=O)N3CCOCC3)c2)cc1 | u | u
9 | CC(=O)C1=C(C)NC(SCc2cccc([N+](=O)[O-])c2)=C(C#N)C1c1ccco1 (centres undefined) | i | -13%
10 | Cc1cc2ccccn2c1C(=O)Nc1cccc(Cl)c1 | -4% | -5%
11 | O=[N+]([O-])c1ccc(NC(=S)NCC(c2cccnc2)N2CCOCC2)cc1 (centres undefined) | u | -11%
12 | COc1ccc(N2CCN(S(=O)(=O)CCNC(=O)c3cc(=O)c4ccccc4o3)CC2)cc1 | -2%[7.34 µM] | 0%[7.34 µM]
13 | CN(C)C(CNC(=O)c1ccc(NS(=O)(=O)c2ccc(F)c(F)c2)cc1)c1ccccc1 (centres undefined) | -9% | -13%
14 | NC(N)=NC(N)=Nc1ccc(O)cc1 | i | -16%
15 | COc1ccc(C2=NOC(C(=O)O)C2)cc1 (centres undefined) | -9% | -3%

nr | molecule | VACV mCherry inh | Vaccinia Venus
16 | CCC(C(=O)NC1CCCC1)n1c(C2CCCC2)nc2ccccc21 (centres undefined) | 6% | 0%
17 | CN(C)c1ccc(NC(=O)CC(NCc2ccccn2)C(=O)O)cc1 (centres undefined) | i | -10%
18 | Cc1c(F)cccc1NS(=O)(=O)c1ccc2c(c1)NC(=O)CO2 | -6% | -4%
19 | N#Cc1cc(Cl)c(N2CCOCC2)cc1C#N | i | -16%
20 | CC1=CC(C)C(C(=O)O)C(C(=O)N2CCN(C)CC2)C1 (centres undefined) | i | -7%
21 | Cc1cc(C)c2c(=O)n3c(nc2c1)C(Cc1ccccc1)NC(=O)c1cc2ccccc2cc1-3 (centres undefined) | i | -23%
22 | COc1ccc(CCNC(=O)c2cc3sccc3n2Cc2ccc(Cl)cc2)cc1OC | -14% | -22%
23 | Cc1occc1-c1nnc(SCC(=O)N(C)CCC#N)n1N | x | -20%
24 | Cc1cccc(NC(=O)CN2CCc3cc4c(cc3C2)OCCCO4)c1 | -27% | -8%
25 | CN(/N=C/c1ccc(C(C)(C)C)cc1)C1=NCCN1 | -2% | 6%
26 | O=[N+]([O-])c1ccc(-c2cccnc2)cc1 | i | -5%
27 | CSc1nsc(SCC(=O)NC2CCCCC2)n1 | x | -25%
28 | Cc1ccc(N(C(=O)c2csnn2)C(C(=O)NC2CCCC2)c2ccccn2)c(C)c1 (centres undefined) | 2% | -4%
29 | CC(NC(=O)C1CCCN(S(=O)(=O)c2ccc(-n3cnnn3)cc2)C1)c1ccc(F)cc1 (centres undefined) | -25% | -1%
30 | COc1ccc(NC(=O)C(C)N(c2ccccc2)S(C)(=O)=O)cc1 (centres undefined) | -13% | 5%

nr | molecule | VACV mCherry inh | Vaccinia Venus
31 | NC(=N\N=Cc1ccco1)/C(N)=N/N=Cc1ccco1 | -2% | -11%
32 | COC(=O)[C@@]1(Cc2ccc(F)cc2)[C@H]2c3cc(C(=O)N(C)C)n(Cc4ccc(S(C)(=O)=O)cc4)c3C[C@H]2CN1C(=O)c1ccccc1 | -16% | -14%
33 | Cc1cc(N2C(=O)CC(Cc3ccccc3)C2=O)no1 (centres undefined) | -18% | -16%
34 | Cc1ccc(OCC(O)Cn2c(=N)n(CCN3CCCCC3)c3ccccc32)cc1 (centres undefined) | -27% | -26%
35 | CN(C(=O)c1cccc(NC(=O)Cc2ccc(NC(=O)C3CCCN(C(=O)C4CCCC4)C3)cc2)c1)C1CCCC1 (centres undefined) | i | 0%
36 | c1ccc2c(c1)ncn2-c1ccc(-c2ccnc3ncnn23)cc1 | i | -3%
37 | Cc1ccc(C2=NN(C(=O)CCCC(=O)O)C(c3ccco3)C2)cc1 (centres undefined) | -5% | 2%
38 | CC(C)Oc1ccc(/C(O)=C2/C(=O)C(=O)N(CCCn3ccnc3)C2c2cccnc2)cc1 (centres undefined) | -11% | 4%
39 | COc1ccc(NC(=O)CN2C(=O)CSc3ccc(S(=O)(=O)N(C)C)cc32)cc1OC | -13% | 1%
40 | N#Cc1ccccc1OCC(=O)NCCNC(=O)COc1ccccc1C#N | -2% | 0%
41 | CCOc1ccccc1NC(=O)CCc1c(C)nn(-c2ccc(N3CCCCC3)nn2)c1C | -14% | -12%
42 | CCCOC(=O)CCCCC1SCC(NC(=O)OC)C1NC(=O)OC (centres undefined) | -1% | -6%
43 | CCOC(=O)C1=C(C)N=C2c3ccccc3C(=O)C2C1c1ccccc1 (centres undefined) | -6% | -14%
44 | COc1ccc(C(=O)NCc2ccc(-c3nc4ccccc4s3)cc2)cc1OC | x | u
45 | CSc1nc(Oc2cccc(C(F)(F)F)c2)cc(C(F)(F)F)n1 | -17% | -23%

item | SMILES | VACV mCherry inh | Vaccinia Venus
46 | Cc1cc(C)cc(NC(=O)COc2coc(CN3CCc4ccccc4C3)cc2=O)c1 | u | u
47 | COc1ccc(/C=C(\NC(=O)c2ccc(C)cc2)C(=O)Nc2ccc(C(=O)O)cc2)cc1 | -9% | -9%
48 | CCCC(C(=O)Nc1ccc2c(C)cc(=O)oc2c1)c1ccccc1 (centres undefined) | i | -5%
49 | Cc1ccccc1C1CC(c2cccs2)=NN1S(C)(=O)=O (centres undefined) | -1% | -2%
50 | Cc1cc(C)n(C(=O)c2ccc(S(=O)(=O)N3CCCC3)cc2)n1 | x | 15%
51 | COc1nnc(-c2ccc(N3CCOCC3)c(NC(=O)C3CCCCC3)c2)c2ccccc12 | i | 0%
52 | CCCC(=O)N(c1ccc2oc(-c3ccccc3)c(C(=O)OCC)c2c1)S(=O)(=O)c1ccc(C)cc1 | -17% | -25%
53 | N#CC(=Cc1ccc(O)c(O)c1)C(=O)NCc1ccccc1 | -9% | -27%
54 | CCCn1c(SCCc2ccccc2)nc2c1c(=O)[nH]c(=O)n2C | x | u
55 | Cc1ccc(C(=O)N2CCN(c3ccc(NC(=O)CSc4ccc(Cl)cc4)cc3)CC2)cc1 | -21% | -16%
56 | CC(=O)NC1=NN(C(C)=O)C(c2ccccn2)S1 (centres undefined) | i | -14%
57 | O=C(Cn1ccc(NC(=O)OCc2ccccc2)nc1=O)NCCCc1ccccc1 | u | -18%
58 | CCOc1ncccc1C(=O)OCC(=O)c1ccc(Cl)s1 | 16% | 19%
59 | O=C(C[n+]1cc(Br)cc(Br)c1)c1ccc(Cl)cc1 | i | -2%
60 | CCCNC(=O)c1noc2c1CCc1ccccc1-2 | i | -16%

# A different layout for part of the listing above:
16	CCC(C(=O)NC1CCCC1)n1c(C2CCCC2)nc2ccccc21 (centres undefined)
  VACV mCherry inh: 6%	Vaccinia Venus: 0%
17	CN(C)c1ccc(NC(=O)CC(NCc2ccccn2)C(=O)O)cc1 (centres undefined)
  VACV mCherry inh: i	Vaccinia Venus: -10%
18	Cc1c(F)cccc1NS(=O)(=O)c1ccc2c(c1)NC(=O)CO2
  VACV mCherry inh: -6%	Vaccinia Venus: -4%
19	N#Cc1cc(Cl)c(N2CCOCC2)cc1C#N
  VACV mCherry inh: i	Vaccinia Venus: -16%

# Further compounds.
item | SMILES | VACV mCherry inh | Vaccinia Venus
61 | COC(=O)[C@]12CCCCC=C1N(Cc1ccc(Cl)cc1Cl)C(=O)[C@H](CC(=O)N1CCOCC1)C2 | 18% | -7%
62 | COc1ccc(Nc2nnc(-c3ccc(C)cc3)c3ccccc23)cc1C(=O)N1CCCCC1 | -30% | u
63 | O=C(NCc1ccc(F)cc1)c1cc(C2CCCN(C(=O)C3CCCCC3)C2)on1 (centres undefined) | -13% | -8%
64 | CC(C)CN(CCCNC(=O)CN1C(=O)COc2ccc(S(=O)(=O)N3CCC(C)CC3)cc21)CC(C)C | i | -7%
65 | Cc1cc(C(=O)OCC(=O)Nc2cc(S(=O)(=O)N3CCOCC3)ccc2Cl)c(C)o1 | i | -16%
66 | Cc1nc2ccccc2n1CC(O)COc1ccc(Br)cc1 (centres undefined) | -19% | -11%
67 | O=C1SC(SC(=Nc2ccccc2)Nc2ccccc2)C(=O)N1c1ccccc1 (centres undefined) | u | 13%&-17%
68 | Cc1ccc(C(=O)/C=C/Nc2ccc3c(c2)OCO3)cc1 | x | -28%
69 | CCCc1nnc(SCC(=O)Nc2nc(C)cs2)n1CCOC | -23% | -22%
70 | COc1ccc2sc(SCCCS(=O)(=O)O)[n+](CCCS(=O)(=O)[O-])c2c1 | -15% | -1%
71 | O=C(CCl)NC(Cc1ccccc1)C(=O)OCC(=O)c1ccc(-c2ccccc2)cc1 (centres undefined) | -22% | -5%
72 | O=c1n(Cc2ccc(Cl)cc2)nc2n1-c1ccccc1OC2 | 6% | 2%
73 | C/C(=N\NC(=O)Cc1cccc2ccccc12)c1ccncc1 | -15% | -28%
74 | CCc1ccc(OCc2nnc(NC(=O)c3cccs3)s2)cc1 | x | -22%
75 | CCOc1ncccc1C(=O)Nc1cccc(-c2nnc3n2CCCCC3)c1 | i | -4%

item | SMILES | VACV mCherry inh | Vaccinia Venus
76 | CCCCC(=O)Nc1ccc(C(=O)Nc2cc(C(F)(F)F)ccc2Cl)cc1 | i | u
77 | Cc1c(C(=O)N(Cc2ccccc2)Cc2cccnc2)cnn1-c1ccc(F)cc1 | i[7.34 µM] | -3%[7.34 µM]
78 | Cc1ccc(Cn2cc(CN3CC(N4CCN(CCO)CC4)CS3(=O)=O)nn2)cc1 (centres undefined) | 7% | -2%
79 | C[C@@H]1CN([C@@H](C)CO)S(=O)(=O)c2ccc(-c3ccccc3)cc2O[C@@H]1CN(C)Cc1ccccc1C(=O)O | -8% | -13%
80 | O=C(C[C@H]1C=C[C@@H](NC(=O)Cc2cccnc2)[C@@H](CO)O1)NCc1ccc2c(c1)OCO2 | -6% | -1%
81 | CCCCCC(=O)Nc1ccc2ccccc2c1 | i | -4%
82 | c1ccc2nc(N3CCCC3)c(N3CCCCC3)nc2c1 | i | -11%
83 | COc1ccc(CCNC(=O)c2ccc(CS(=O)(=O)Cc3ccc(C)cc3)o2)cc1OC | i | -22%
84 | COc1cccc(-c2sc3ccc(OC)cc3c2-c2ccc(OCCN(C)C)cc2)c1 | u | u
85 | O=C(Nc1nnc(C2CC2)s1)c1cc(S(=O)(=O)N2CCN(c3ccccc3)CC2)ccc1Cl | -7% | -13%
86 | COc1ccc(OC(=O)N(C)C[C@@H]2OCc3cnnn3CCCC(=O)N([C@H](C)CO)C[C@H]2C)cc1 | -20% | -7%
87 | Cc1ccc(C)c(Cn2nc(-c3ccccc3)ccc2=O)c1 | u | -11%
88 | O=C(NCCCN1CCOCC1)c1ccccc1-c1ccccc1 | 4% | 9%
89 | Cc1ccc(C(=O)N2CCN(c3ccccc3F)CC2)cc1NC(=O)c1nsc2ccccc12 | -10% | -20%
90 | O=C(OCc1nnc(-c2ccccc2)o1)c1cc(=O)c2ccccc2o1 | -12% | 6%

# Fetched one by one from the list above, 3 records:
item | SMILES | VACV mCherry inh | Vaccinia Venus
43 | CCOC(=O)C1=C(C)N=C2c3ccccc3C(=O)C2C1c1ccccc1 (centres undefined) | -6% | -14%
15 | COc1ccc(C2=NOC(C(=O)O)C2)cc1 (centres undefined) | -9% | -3%
36 | c1ccc2c(c1)ncn2-c1ccc(-c2ccnc3ncnn23)cc1 | i | -3%

# Following part:
item | SMILES | VACV mCherry inh | Vaccinia Venus
91 | Cc1ccc(S(=O)(=O)N2CC[C@@H]2C(=O)O)cc1 | i | -5%
92 | Cc1csc(C(C#N)C(=O)c2cc3ccccc3o2)n1 (centres undefined) | -26% | -17%
93 | COc1ccc(NC(=O)c2cc(N3C(=O)C4C5CCC(C5)C4C3=O)ccc2Cl)c(OC)c1 (centres undefined) | i | -9%
94 | Cc1ccc(C)c(N2CCN(C(=O)C(CC(C)C)NS(=O)(=O)c3ccc4nc(C)sc4c3)CC2)c1 (centres undefined) | -20% | -9%
95 | COc1ccc(C(=O)OCCCN(C)C)cc1OC | -14% | -9%
96 | COCc1cn(-c2nc3ccccc3s2)nn1 | -9% | 3%
97 | CC(C)CNC(=O)CN(C)S(=O)(=O)c1ccc(F)cc1 | -14% | -8%
98 | CCc1nnc2c(N3CCN(c4cccc(C(F)(F)F)c4)CC3)nc3ccccc3n12 | i | -19%
99 | Cc1ccc(C(=O)Nc2ccc3ncccc3c2)cc1 | -11% | -17%
100 | Cc1ccc(S(=O)(=O)CCC(=O)OCC(=O)c2cc(C)n(C)c2C)cc1 | i | -13%
101 | CC(=O)Nc1ccc(S(=O)(=O)c2cc(O)ccc2O)cc1 | -8% | -16%
102 | CCOc1ccccc1NC(=O)COC(=O)c1nc2nccc(C)n2n1 | -14% | -1%
103 | Cc1csc(NC(=O)c2ccc(Br)s2)n1 | i | -6%
104 | CCOC(=O)c1sc(NC(=O)c2ccncc2)c(C#N)c1C | -19% | -8%
105 | O=C1N[C@@H](Cc2c[nH]c3ccccc23)COC(=O)[C@H](Cc2ccc(F)cc2)C/C=C\C[C@@H]1CC(=O)N(CCO)Cc1ccccc1 | u | u

# Compounds were not picked by outcome; 0.87% or so of the library scored in one or more.
